UCH37 DUB inh – inhibitors of human deubiquitinating enzyme UCH37 | purified proteasome/UCH37, Ub-AMC cleavage fluorescence | inhibition, % (test concentration not listed) | Q9Y5K5 | hit rate 0.33% among 330,000;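 active means mean of two replicates above 20%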;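 further: 0% = compound-free wells with enzyme and 100% = wells lacking proteasome; stock transfer was 100 nL into about 20 µL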
Target sequence (Q9Y5K5 whole entry, looked up): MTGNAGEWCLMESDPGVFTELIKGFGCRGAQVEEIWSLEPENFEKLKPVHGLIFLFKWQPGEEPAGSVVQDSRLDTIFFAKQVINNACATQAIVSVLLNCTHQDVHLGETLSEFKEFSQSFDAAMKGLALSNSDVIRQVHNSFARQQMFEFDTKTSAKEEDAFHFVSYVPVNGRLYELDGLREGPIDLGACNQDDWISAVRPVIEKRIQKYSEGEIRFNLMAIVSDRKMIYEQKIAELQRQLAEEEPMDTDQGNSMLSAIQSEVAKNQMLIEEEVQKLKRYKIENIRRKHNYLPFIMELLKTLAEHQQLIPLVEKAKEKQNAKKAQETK
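Material: human UCH37 enzyme supplied as purified proteasome complex. Measure: % inhibition of Ub-AMC cleavage fluorescence. Medium: pH 7.4 Tris-HCl (50 mM) with ovalbumin, ATP-MgCl2, DTT. Times: 30 min preincubation with enzyme, 25 min cleavage at room temperature. Detection: AMC fluorescence intensity at 355/460 nm.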
Vif A3G – inhibitors of Vif binding to APOBEC3G peptide, primary screen, biochemical, TR-FRET, GST-Vif 1-94, biotin-A3G peptide, dose response retest (AID 1117319); hit rate 0.57% among 260,000; one-dose inhibition, %; IC50 in µM for titrated hits; TR-FRET GST-Vif / biotin-A3G peptide binding; higher % means a stronger effect; test concentration not given here; strong numbers were not always called active;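 active means above the screen mean plus three standard deviations and confirmed in dose response; inconclusive means results disagree or hit not tested in dose response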;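 further: Vif residues 1-94 fused to GST binding biotinylated APOBEC3G peptide 110-148; 0% = full assay without inhibitor and 100% = GST in place of GST-Vif; retest series ran down from 100 µM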
LANA-H2B inh – blocks KSHV LANA binding to histone H2A/H2B. cell-free LANA-H2A/H2B peptide, fluorescence polarization. inhibition, % (concentration not given with the values). hit rate 0.6% among 320,000; in the data active means inhibition mostly above about 10%, no sharp cut-off; inactive means mostly below about 6.7%;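 further: stock transfer was 7.5 nL into about 10 µL; 0% = median of vehicle wells and 100% = median of positive control wells; one replicate is shown; the record names a cut of 25% in any replicate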
Bfl-1 A1 inh – inhibitors of the anti-apoptotic protein A1, read as caspase activation | MEF A1-2A-BIM cells, Caspase-Glo 3/7 luminescence, 3 h; percent of clofoctol response, vehicle zero | caspase activation, % (test concentration not listed) | hit rate 0.066% among 330,000 | AID 2462;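 active means over half of replicate activation scores above 10%, or exactly half above 10 with the replicate mean above 10; inconclusive means replicate mean below 10 yet half the replicates above 10; inactive means over half of replicates below 10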;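 further: wells of about 30 µL received 50 nL stock; many hits fall short of the cut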
E coli growth – inhibitors of Escherichia coli growth. OD600, 23 h; hits give low values. OD600 absorbance (test concentration not listed). hit rate 0.21% among 330,000;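 active means OD600 absorbance below the run mean of sample wells minus 3.6 SD, in any replicate, cut at about 0.56 in these data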;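 further: stock transfer was 300 nL into about 60 µL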
B2AR ag – agonists of human beta-2 adrenergic receptor inducing internalization | response, % (test concentration not listed) | Am2.2-beta2AR cells, FAP receptor internalization, flow cytometry; reference of the scale not given here | P07550 | hit rate 0.43% among 340,000;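 active means response above a set limit, near 3 SD of response in nonfluorescent compounds, cut at about 42% in these data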;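 further: stock transfer was 100 nL into about 11 µL; a reference agonist was the positive control; negative values mostly stem from fluorescent compounds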
HNF4A DNA FP – change in binding of human HNF4 alpha to DNA | P41235 | HNF4a-FITC DNA binding, fluorescence polarization, 1 h | activity change, % at 10 µM | hit rate 0.3% among 360,000; in the data active means activity change above about 30%, passing the limit was not always enough;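 further: controls were the assay level and a saturating level of protein; the project sought stronger binding though the title names inhibitors; some compounds called inactive have numbers as strong as hits; positive values seem to mean higher polarization but the record does not say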
Target sequence (P41235 whole entry, looked up): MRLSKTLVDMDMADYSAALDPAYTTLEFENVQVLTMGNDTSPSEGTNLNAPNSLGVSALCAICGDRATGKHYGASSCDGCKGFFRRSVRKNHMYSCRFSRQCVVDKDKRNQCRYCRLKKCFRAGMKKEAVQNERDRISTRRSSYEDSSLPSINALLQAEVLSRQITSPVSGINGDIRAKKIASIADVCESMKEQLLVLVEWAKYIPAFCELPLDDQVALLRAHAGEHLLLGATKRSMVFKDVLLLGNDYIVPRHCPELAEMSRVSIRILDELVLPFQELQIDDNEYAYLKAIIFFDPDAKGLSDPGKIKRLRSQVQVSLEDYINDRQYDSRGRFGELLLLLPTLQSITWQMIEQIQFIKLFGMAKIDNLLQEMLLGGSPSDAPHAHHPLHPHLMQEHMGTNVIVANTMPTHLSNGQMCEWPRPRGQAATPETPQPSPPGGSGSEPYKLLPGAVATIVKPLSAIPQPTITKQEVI
Numbers without * were called inactive; ? = inconclusive; nt = no result given. Compounds as they come; any-hit rate near 2.1%.

SMILES	UCH37 DUB inh	Vif A3G	LANA-H2B inh	Bfl-1 A1 inh	E coli growth	B2AR ag	HNF4A DNA FP
COc1ccc(N2CC(NC(=O)N3CCN(c4ccccc4)CC3)CC2=O)cc1 (stereo not drawn)	3.6	-0.6%	-3.3	-0.2	0.678	-6.2	-3.3
CC(=O)NC(CCS(C)(=O)=O)C(=O)Nc1ccc(Cl)c(Cl)c1 (stereo not drawn)	3.4	-0.3%	-0.9	1.5	0.745	0.8	5.6
Cc1cccc(NC(=O)c2ccc3nsnc3c2)c1C	1.6	-3.1%	-0.5	-0.2	0.699	4.5	3.9
CC(C)CN(CCCNC(=O)CN1C(=O)COc2ccc(S(=O)(=O)N3CCCC3)cc21)CC(C)C	1.5	nt	1.6	-0.6	0.69	2.3	-2.7
CCSc1nc(-c2ccco2)ccc1C#N	-28.5	2.2%	1.0	0.9	0.701	4.3	4.4
C/C(=N\NC(=O)c1nnn(-c2nonc2N)c1-c1cccs1)c1ccc(O)cc1	nt	nt	1.5	0.5	nt	-1.2	0.4
CC1CCN(C(=O)CCNS(=O)(=O)c2ccc3c(c2)oc(=O)n3C)CC1	0.7	-3.9%	2.2	0.1	0.689	-4.5	1.3
COc1cc(C(=O)N/N=C(\c2ccccc2)c2ccccn2)cc(OC)c1OC	nt	nt	10.1	-0.3	nt	-5.5	0.2
COc1cc(C(=O)N(C)CCOc2ccc(C)cc2)ccc1OC1CCN(C(C)=O)CC1	0.0	nt	2.2	1.5	0.716	-9.6	-2.8
CC(C)CCn1c(COc2ccccc2)n[nH]c1=S	1.2	1.7%	-1.7	-1.1	0.696	-8.2	4.3
c1ccc2c(c1)oc1c(NCCCN3CCOCC3)ncnc12	0.0	-2.5%	-3.7	-0.2	0.668	1.2	-1.8
O=C(Nc1cc(Br)ccc1O)C1CC(c2c(F)cccc2Cl)=NO1 (stereo not drawn)	6.7	-7.0%	3.9	0.7	0.701	6.2	-1.2
COc1ccc(OCCCC(=O)Nc2cccc([N+](=O)[O-])c2C)cc1	-1.0	18.6%	2.5	1.2	0.694	4.0	-3.6
CC12CN3CCN(CC(C3)/C1=N\N=C1/C3CN4CCN(C3)CC1(C)C4)C2	nt	-1.2%	1.1	0.5	nt	6.1	-0.9
CCN(CC)C(=O)C(=O)c1cccn1-c1ccccc1C#N	0.9	24.6%	1.6	-0.1	0.744	3.3	-35.3
COc1ccc(-n2nc(C(=O)Nc3cc(OC)c(OC)c(OC)c3)c3ccccc3c2=O)c(OC)c1	1.9	-9.3%	1.8	2.0	0.694	5.1	-2.2
Cc1ccc(/C=C2\SC(=S)N(CC(=O)Nc3cccnc3)C2=O)cc1	1.6	10.4%	0.1	-2.9	0.681	12.0	1.4
COc1cc(/C=C/C(=O)OCc2cn3cc(Cl)ccc3n2)ccc1O	-4.4	nt	4.2	1.4	0.643	0.7	5.6
Cc1ccc(C)c(SCC(=O)OCC(=O)Nc2ccc(S(=O)(=O)N3CCOCC3)cc2)c1	0.1	23.1%	-5.0	0.0	0.667	-6.2	-1.5
O=C(COC(=O)C1CC(=O)N(c2nc(-c3ccccc3)cs2)C1)c1ccccc1 (stereo not drawn)	1.1	-12.5%	-1.9	0.6	0.732	-0.1	0.8
COC(=O)c1ccc(-n2c(C)cc(/C=N/n3cnnc3)c2C)cc1	nt	-0.2%	1.9	-1.0	nt	39.9	0.6
CCOC(=O)c1sc(C)c2c1NC(C)(c1cccc3ccccc13)NC2=O (stereo not drawn)	-38.9	-75.8%	-0.1	0.3	0.812	4.0	2.1
CCOc1ccc2[nH]cc(C(=O)N3CCN(C4CCCCC4)CC3)c(=O)c2c1	-26.7	nt	1.4	0.5	0.699	4.0	6.5
OC(COc1ccc2ccccc2c1Br)Cn1cnc(-c2ccccc2)c1 (stereo not drawn)	1.1	11.2%	-3.2	0.2	0.717	5.5	-1.4
Cc1cc(C)c(S(=O)(=O)NCc2ccncc2)c(C)c1	2.2	-4.3%	0.3	-0.9	0.696	1.4	2.4
COc1ccc(/C=N/c2oc(-c3ccccc3)cc2C#N)cc1OC	nt	16.7%	2.5	-0.8	nt	19.6	4.4
COc1ccc([C@H]2CC(=O)C=C(c3cccc(OC)c3)C2)cc1	-4.8	nt	-2.9	-1.0	0.749	-9.2	3.6
CSc1ccc(C(=O)C2CCCN(C(=O)CCc3cnn(C)c3)C2)cc1 (stereo not drawn)	6.2	nt	-1.1	0.2	0.706	0.9	0.8
CCOc1ccc(C(=O)NCC(c2cccs2)N2CCOCC2)cc1 (stereo not drawn)	-2.5	nt	0.4	-1.2	0.728	-10.0	-1.1
COCCNC(=O)C(c1ccc(O)cc1)N(C(=O)CCC(=O)Nc1nccs1)c1cccc(C)c1 (stereo not drawn)	0.4	3.9%	-1.6	0.2	0.634	-1.5	-1.6
CN(C)CCCCOc1ccc(F)cc1	3.3	-0.2%	3.2	1.3	0.72	-2.2	3.4
Cc1nccc(-c2cccc(N/N=C(\C#N)C(=O)c3ccccc3)c2)n1	nt	18.8%	0.4	-0.8	nt	17.5	-2.8
O=C(Cn1cnnn1)NC1CCCN(Cc2ccccc2F)C1 (stereo not drawn)	3.0	nt	6.4	1.2	0.675	3.1	0.8
O=C(c1ccco1)N1CCN(c2ncnc3scc(-c4ccc(F)cc4)c23)CC1	1.0	18.2%	-3.5	2.6	0.7	2.2	1.9
COc1ccc(OC)c(NC(=O)COC(=O)CCCN=C2NS(=O)(=O)c3ccccc32)c1	0.7	2.6%	5.8	2.4	0.634	5.7	1.1
COc1ccc(C2CC(=O)c3c(ccc4ccccc34)N2)cc1OC (stereo not drawn)	0.9	10.2%	3.7	0.6	0.692	-6.2	-0.3
CCOc1cc(C(=O)NC(=S)Nn2cnnc2)cc(OCC)c1OCC	2.9	-2.0%	-2.6	-0.4	0.731	-0.7	-0.5
C[n+]1ccc(C(=O)NCCC[N+](C)(C)C)cc1/C=N/O	nt	8.1%	1.8	1.1	nt	3.2	1.5
O=C(CN1C(=O)COc2ccccc21)c1cccc(Cl)c1	-0.5	-1.9%	-3.8	0.2	0.686	-13.1	4.4
CCOc1cc(/C=N/NC(=O)Cn2nc([N+](=O)[O-])cc2C)ccc1OCc1ccc(F)cc1	nt	3.7%	-1.2	-0.8	nt	8.5	4.8
COc1ccc(CCNC(=O)CCS(=O)(=O)c2ccc3c(c2)oc(=O)n3C)cc1OC	4.0	nt	-0.6	-0.8	0.693	-2.7	-1.4
Cc1nnc(NC(=O)CN2CCN(Cc3ccccc3)CC2)s1	4.6	nt	3.9	-2.2	0.655	-2.1	-1.8
CCOC(=O)NC(Nc1ncccn1)(C(F)(F)F)C(F)(F)F	-0.7	-0.7%	-0.3	-0.2	0.752	-1.4	-3.0
O=c1[nH]c(C2CCN(S(=O)(=O)c3ccccc3)CC2)nc2c1nnn2Cc1cccc(Cl)c1	2.0	nt	5.3	-0.1	0.669	2.2	-0.7
CCCn1c(SCC(=O)NCCc2ccccc2)nnc1-c1ccco1	0.7	29.5%	3.6	0.1	0.687	0.2	-1.6
Cc1ccc2cc(C3C(C#N)=C(N)Oc4c3ccc3cccnc43)c(=O)[nH]c2c1 (stereo not drawn)	-1.6	?	-1.7	-0.3	0.687	-3.6	8.3
Cc1cc(C)c(S(=O)(=O)c2ccc(F)cc2C)c(=O)[nH]1	0.2	-4.1%	0.6	0.3	0.685	-4.7	-4.0
O=C(CSc1ncnc2nc[nH]c12)N1CCOCC1	-2.6	0.9%	-4.0	-0.3	0.699	-8.1	2.2
O=C(CSc1nc2ccccc2c(=O)n1-c1ccccc1F)N1CCOCC1	3.8	-6.8%	-5.0	-0.3	0.696	-5.2	-1.9
Cc1ccc(S(=O)(=O)N(C)c2ccc(OC(=O)COc3ccccc3)cc2)cc1	1.6	nt	-0.6	0.5	0.668	1.2	-3.8

Other structures
SMILES	UCH37 DUB inh	Vif A3G	LANA-H2B inh	Bfl-1 A1 inh	E coli growth	B2AR ag	HNF4A DNA FP
CC(C)(C)c1ccc(C(=O)N2CCN(CCNC(=O)C(=O)Nc3ccc(F)cc3)CC2)cc1	2.5	-1.0%	-0.2	-1.1	0.686	-13.0	2.9
CC(OC(=O)C1CC1C)C(=O)Nc1ccc(Cl)cn1 (stereo not drawn)	0.6	8.3%	nt	nt	0.627	6.6	3.5
O=C(CN1C(=O)NC2(CCOc3ccccc32)C1=O)c1cccs1 (stereo not drawn)	2.8	1.0%	-3.9	0.4	0.708	-0.1	6.3
CC(=O)Nc1ccc(NS(=O)(=O)c2ccc(C)cc2)c([N+](=O)[O-])c1	5.8	6.8%	1.8	-0.2	0.677	9.3	0.7
O=C(COC(=O)C12CC3CC(CC(C3)C1)C2)NC12CC3CC(CC(C3)C1)C2	2.6	10.4%	2.3	0.5	0.705	-7.8	-1.9
NC(=O)CC(NC(=O)c1ccc(Br)cc1)c1ccc(N2CCC(Br)CC2)c([N+](=O)[O-])c1 (stereo not drawn)	2.9	nt	-0.3	0.1	0.707	-10.3	0.6
COc1ccc(-c2cc(-c3nnc(COC(=O)CC4CC5CCC4C5)o3)c3ccccc3n2)cc1OC (stereo not drawn)	-143.5	nt	11.3	-0.4	0.724	5.7	4.4
C=CC(=O)Nc1ccc(CN2C(=O)N(c3c(Cl)c(OC)cc(OC)c3Cl)Cc3cnc(NCCCCN(CC)CC)nc32)cc1	2.3	nt	-1.3	?	nt	24.3	19.9
CC(=O)OC1C(N2CCCCC2)c2c(ccc(/C=C/C(=O)N3CCCCC3)c2O)OC1(C)C (stereo not drawn)	-27.6	4.6%	1.6	-0.3	0.716	-2.0	-2.1
O=C(C1CC(=O)N(c2ccccc2F)C1)N1CCOCC1 (stereo not drawn)	3.3	nt	-3.0	-0.8	0.715	0.6	0.0
Cc1cc(C)c(C(=O)COC(=O)C2CCN(c3ccc(C(F)(F)F)cn3)CC2)cc1C	nt	nt	1.5	?	nt	5.0	2.7
C/C(CC(=O)Nc1c(Cl)cccc1C(F)(F)F)=N\NC(=O)c1cnccn1	nt	14.7%	-1.2	0.7	nt	-12.7	-2.5
COc1cc(OC)cc(C2=NC3(CCC(C)CC3)NC2=S)c1 (stereo not drawn)	2.4	-1.1%	-3.9	-0.2	0.682	-3.4	6.8
CCCCCn1c(=O)c(C(=O)c2ccccc2)nc2ccccc21	-0.9	10.4%	7.4	-0.1	0.663	-2.2	4.6
CC(=O)NC(CCS(C)(=O)=O)C(=O)Nc1cccc(C)c1C (stereo not drawn)	0.3	13.2%	5.3	0.2	0.703	1.2	-5.7
O=C(COC(=O)CCCCCN=C1NS(=O)(=O)c2ccccc21)Nc1ccc(Cl)c(Cl)c1	3.4	5.6%	3.8	-0.5	0.708	-0.7	-1.1
CCOC(=O)COc1c(Cl)cc(C2NC(=S)NC(c3ccccc3)=C2C(C)=O)cc1OC (stereo not drawn)	5.1	nt	0.6	0.3	0.705	16.8	-1.1
COc1ccc(C(=O)Nn2cnnc2)cc1OC	6.7	nt	-0.2	0.7	0.674	11.0	0.5
Cc1ccc(NC(=O)c2[nH]cnc2C(=O)NN)cc1	-24.5	6.0%	1.7	0.0	0.698	-4.3	-2.5

3 of these compounds in a different format:
Screens in order – UCH37 DUB inh | Vif A3G | LANA-H2B inh | Bfl-1 A1 inh | E coli growth | B2AR ag | HNF4A DNA FP
CCCCCn1c(=O)c(C(=O)c2ccccc2)nc2ccccc21
  -0.9 | 10.4% | 7.4 | -0.1 | 0.663 | -2.2 | 4.6
CCOC(=O)COc1c(Cl)cc(C2NC(=S)NC(c3ccccc3)=C2C(C)=O)cc1OC (stereo not drawn)
  5.1 | nt | 0.6 | 0.3 | 0.705 | 16.8 | -1.1
C/C(CC(=O)Nc1c(Cl)cccc1C(F)(F)F)=N\NC(=O)c1cnccn1
  nt | 14.7% | -1.2 | 0.7 | nt | -12.7 | -2.5

Screening data: PubChem, several laboratories
